Bioassay records: PubChem BioAssay, several laboratories
eIF4H inh: inhibitors of RNA binding by human eIF4H; Q15056; eIF4H fluorescence polarization binding assay; inhibition, % at 35 µM; hit rate 0.94% among 290,000; AID 2012;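 active = 50% or more with normal probe brightness, or confirmed in later tests; about a fifth of its hits are not listed in these tables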;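 note: calls also rest on retests at 20 µM and on dose response follow-up; 0% = protein and probe with vehicle and 100% = probe without protein; strong numbers were not always called active; many hits fall short of the cut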
UUG fidelity: alters start codon recognition fidelity in yeast | S. cerevisiae UUG-firefly luciferase reporter, luminescence/redox ratio | activity score, % at 18.7 µM | hit rate 0.13% among 350,000 | AID 602363;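 active = replicate mean at a twofold rise or more, about +100% in these data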;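 note: firefly luciferase made from a UUG start codon reports start codon fidelity; reporter light over untreated wells divided by growth signal over untreated wells; some hits fall short of that in this replicate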
Rce1 inhib: yeast Ras-converting enzyme inhibition | Q03530 | yeast membranes, quenched prenylated peptide cleavage fluorescence | calls only | hit rate 0.27% among 290,000 | AID 2563;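 active = fall in fluorescence gain of 50% or more versus controls, with final raw signal at or below 3038400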;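 note: plate controls were neutral control wells for no effect and wells lacking membranes for full effect; tested at 10 µM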
Target sequence (Q03530 whole entry, looked up): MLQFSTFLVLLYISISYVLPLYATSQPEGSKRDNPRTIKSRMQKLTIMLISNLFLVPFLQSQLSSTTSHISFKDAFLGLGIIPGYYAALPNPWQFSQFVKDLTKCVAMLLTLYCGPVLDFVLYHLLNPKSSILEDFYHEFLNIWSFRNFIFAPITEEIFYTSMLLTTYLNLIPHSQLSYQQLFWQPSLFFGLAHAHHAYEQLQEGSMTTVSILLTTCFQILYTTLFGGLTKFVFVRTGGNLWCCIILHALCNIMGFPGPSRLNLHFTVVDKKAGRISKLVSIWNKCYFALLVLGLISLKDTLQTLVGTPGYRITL
CSC inhib: cancer stem cell inhibition. hit rate 1.1% among 300,000. inhibition, % at 7.5 µM. cancer stem cell-like cells viability, luminescence;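 active = mean at 75% or more and at least half the replicates too; tested in HMLE shEcad cells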;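 note: 0% = median of negative and 100% = median of positive control wells; the first replicate is given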
MT1-MMP act inh: blocks activation of human MT1-MMP | P50281 | HT1080 RFP-PRO-GFP cells, GFP/RFP ratio fluorescence, overnight; percent of plate control window, DMSO zero | GFP/RFP ratio change, % at 20 µM | hit rate 0.061% among 360,000;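 active = GFP/RFP ratio change of at least 30% with cell ATP level not reduced by more than half and red fluorescence within 50% of control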; note: strong numbers were not always called active
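Test system: HT1080 RFP-PRO-GFP cells; Benchmarks: DMSO and RFP-L50D-GFP cell wells; Timing: cells overnight before dosing, compound overnight, 37 °C, 5% CO2; Compound: one 20 µM compound dose with 1% DMSO; Read-out: GFP/RFP fluorescence ratio.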
PABP FP inh: blocks human PABP binding to poly(A) RNA; fluorescence polarization; inhibition, % at 35 µM; hit rate 1% among 290,000; AID 2014;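 active = 50% or more with normal probe brightness, or confirmed in later tests; about a fifth of its hits are not listed in these tables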;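 note: calls also rest on retests at 20 µM and on dose response follow-up; controls were probe without protein and protein plus probe with vehicle; some compounds called inactive have numbers as strong as hits; many hits fall short of the cut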
Target sequence (P11940 whole entry, looked up): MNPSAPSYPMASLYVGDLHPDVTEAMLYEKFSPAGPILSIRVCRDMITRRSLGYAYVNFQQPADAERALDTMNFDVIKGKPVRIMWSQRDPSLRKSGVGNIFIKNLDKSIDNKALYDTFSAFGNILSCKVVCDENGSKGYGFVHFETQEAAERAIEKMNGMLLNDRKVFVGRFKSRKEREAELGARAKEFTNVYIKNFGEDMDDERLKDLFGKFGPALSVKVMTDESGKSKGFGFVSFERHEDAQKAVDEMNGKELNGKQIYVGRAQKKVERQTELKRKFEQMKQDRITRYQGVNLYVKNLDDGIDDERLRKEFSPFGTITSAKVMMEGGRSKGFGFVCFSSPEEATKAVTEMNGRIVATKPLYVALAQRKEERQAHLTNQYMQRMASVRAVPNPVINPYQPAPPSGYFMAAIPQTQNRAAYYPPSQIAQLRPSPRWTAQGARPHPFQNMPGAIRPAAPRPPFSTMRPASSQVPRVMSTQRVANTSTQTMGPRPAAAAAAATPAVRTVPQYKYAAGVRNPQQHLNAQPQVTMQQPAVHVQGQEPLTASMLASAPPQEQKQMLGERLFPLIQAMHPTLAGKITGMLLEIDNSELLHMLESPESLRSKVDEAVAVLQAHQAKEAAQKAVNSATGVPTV
Env fusion inh: inhibitors of HIV Env-mediated cell fusion; HeLa-JRFL Env/CEM21 cell fusion, luciferase; inhibition, % at 12.3 µM; hit rate 1.1% among 360,000; AID 651610;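 active = mean replicate inhibition score of at least 50 and every replicate individually at or above 50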;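 note: 0% = plate neutral controls and 100% = maraviroc near 300 nM; one replicate is shown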
eIF4H inh retest: also measured in eIF4H inh; calls as there; inhibition, %; compound at 20 µM; confirmation average;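 mean of two retest wells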
PABP FP inh retest: also measured in PABP FP inh; calls as there; inhibition, %; compound at 20 µM; confirmation repeats;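 mean of two retest wells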
MT1-MMP act inh RFP: also measured in MT1-MMP act inh; calls as there; RFP signal change, %; measured here: RFP expression control read;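 0 = vehicle wells; hits needed this value within 50% of zero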
An asterisk follows results filed as active; i = inactive; nt = not tested or not shown.

SMILES	eIF4H inh	UUG fidelity	Rce1 inhib	CSC inhib	MT1-MMP act inh	MT1-MMP act inh RFP	PABP FP inh	Env fusion inh	others
COc1ccccc1CN(C)C(=O)c1cc2ccccc2o1	6	-11	i	-4	0	0	8	7
O=C(CSc1ncnc2nc[nH]c12)c1ccccc1	-6	-25	i	-8	-6	-7	8	30
CCCN1CCN(S(=O)(=O)c2ccc(OC)c(Br)c2)CC1	10	-2	i	4	-1	4	-4	nt
CC(=O)c1cccc(NC(=O)CCCSc2ccccc2)c1	-2	-9	nt	-2	3	0	2	7
O=C(Nc1c(-c2ccccc2)nc2ccccn12)c1ccco1	2	-6	i	2	3	-1	-2	-23
COc1ccc(-c2sc3ccc(N4CCOCC4)cc3c2C#CC2(O)CCCCC2)cc1	nt	-8	nt	106*	12	7	nt	-9
COc1ccccc1NC(=S)NCCN1CCOCC1	-7	-13	i	-17	-1	3	-15	-8
OCC[C@@H]1C[C@@H](O)[C@H](O)[C@]2(Cc3ccccc3CCO2)O1	-5	-15	i	-4	4	3	-6	6
CCOc1ccccc1N1CCN(Cc2ccc(OC)c(OC)c2OC)CC1	-1	-5	i	-10	-7	0	4	-27
CC(C)(C)OC(=O)NCCCCCNC(=O)c1nc[nH]c1C(=O)NCc1ccccc1	nt	-3	nt	-5	2	-13	nt	1
CN(C(=O)c1ccccc1C(=O)OCC(=O)Nc1ccc(OC(F)F)cc1)c1ccccc1	nt	15	nt	12	0	-7	nt	nt
CC(C)(C)n1nnnc1C(c1cccs1)N(Cc1ccccc1)Cc1cccnc1 (stereo not given)	5	-14	i	6	-19	-25	5	nt
Cn1c(SCc2ccccc2)nnc1-c1ccc2nonc2c1	-7	nt	i	-7	3	2	-4	2
COc1ccc(OC)c2c1nc1n2CCS1	-2	-21	i	-6	5	1	-10	-35
COc1ccc(NC2SC(=O)N(C)C2=O)cc1 (stereo not given)	-2	-19	i	3	-2	4	-6	12

Sorted by count of non-hydrogen atoms (smallest number first): 6 of the compounds above.
SMILES	eIF4H inh	UUG fidelity	Rce1 inhib	CSC inhib	MT1-MMP act inh	MT1-MMP act inh RFP	PABP FP inh	Env fusion inh	others
COc1ccc(NC2SC(=O)N(C)C2=O)cc1 (stereo not given)	-2	-19	i	3	-2	4	-6	12
O=C(CSc1ncnc2nc[nH]c12)c1ccccc1	-6	-25	i	-8	-6	-7	8	30
OCC[C@@H]1C[C@@H](O)[C@H](O)[C@]2(Cc3ccccc3CCO2)O1	-5	-15	i	-4	4	3	-6	6
CC(=O)c1cccc(NC(=O)CCCSc2ccccc2)c1	-2	-9	nt	-2	3	0	2	7
CC(C)(C)OC(=O)NCCCCCNC(=O)c1nc[nH]c1C(=O)NCc1ccccc1	nt	-3	nt	-5	2	-13	nt	1
COc1ccc(-c2sc3ccc(N4CCOCC4)cc3c2C#CC2(O)CCCCC2)cc1	nt	-8	nt	106*	12	7	nt	-9

Continued:
SMILES	eIF4H inh	UUG fidelity	Rce1 inhib	CSC inhib	MT1-MMP act inh	MT1-MMP act inh RFP	PABP FP inh	Env fusion inh	others
O=C(CCSc1ccccc1)Nc1nnc(-c2ccccc2)o1	0	-16	i	1	3	3	4	7
Cc1cc(-c2ccc(Cl)cc2)n2nc(N)nc2n1	-7	-17	i	-14	5	2	-2	nt
CN(Cc1ccccn1)C(=O)C1CCC(=O)N(Cc2cccc(C(F)(F)F)c2)C1 (stereo not given)	-10	-9	i	-13	-3	2	-19	1
Cc1sc2ncn(CC(=O)OC(C)C(=O)NC(C)(C)C)c(=O)c2c1C (stereo not given)	1	-3	i	-10	7	7	1	nt
COC(=O)c1cc(-c2ccc(Cl)cc2Cl)n[nH]1	0	5	i	-26	-1	1	-3	-152
COC(=O)c1sccc1NC(=O)C1CC(C)=C(C)CC1C(=O)O (stereo not given)	-8	nt	i	5	-2	-1	-9	0
COc1ccccc1NC(=O)N1CCN(c2ncccn2)CC1	6	-10	i	-10	3	4	-2	nt
Cc1nc(C)c(Cc2ccccc2Cl)c(=O)[nH]1	3	nt	i	-6	8	7	2	8
O=C(NCCCN1CCOCC1)c1cccc(S(=O)(=O)N2CCc3ccccc3C2)c1	4	nt	i	25	-1	1	-7	-8
N/C(=N\OC(=O)c1cnn(-c2ccccc2)c1C(F)(F)F)c1ccc(C(F)(F)F)cc1	-6	nt	i	9	3	3	-8	-10
C=CCN(C(=O)c1csnn1)C(C(=O)NCc1ccc(F)cc1)c1ccccc1 (stereo not given)	2	7	i	nt	-3	-1	13	-1
CCCC1C(=O)N(c2ccccc2)C1c1ccccc1 (stereo not given)	5	-22	i	2	-2	-5	-11	nt
CCCCCc1nnc(NC(=O)C2COc3ccccc3O2)s1 (stereo not given)	11	-49	i	-5	-2	-1	-4	-12
O=C(c1ccc(N2CCN(S(=O)(=O)c3ccccc3)CC2)c([N+](=O)[O-])c1)N1CCOCC1	-8	nt	i	-8	0	-2	1	1
Oc1ccccc1-c1nc(NCc2cccnc2)c2ccccc2n1	1	-11	i	63	-9	-1	-11	25
CCS(=O)(=O)c1nc(S(=O)(=O)c2ccc(C)cc2)c(NCCCN2CCOCC2)s1	-9	-14	i	3	0	4	-4	8
CCCC(=O)C1=C(O)C(C(=O)OC)C(C)(C)CC1=Nc1ccccc1 (stereo not given)	2	2	i	0	-5	-2	8	nt
COc1ccccc1N1CCN(C(=O)Nc2cccc(C)c2)CC1	2	-1	i	-3	9	5	2	nt
CCOc1cc(C(=O)OCC(=O)Nc2cc(C)on2)ccc1OCC(C)C	7	nt	i	nt	0	4	28	-57
Cc1cc(C)n(CC(C)Nc2nc3nonc3nc2N2CCCCC2)n1 (stereo not given)	-8	-3	i	-13	1	-1	7	0
O=C(NCCOC(=O)C1COc2ccccc2O1)c1cccnc1 (stereo not given)	3	-13	i	-11	4	9	-6	nt
C#CCOc1coc(COC(=O)c2ccccc2)cc1=O	-6	-17	i	-2	-2	0	-9	2
CNC(=S)N(Cc1ccc2c(c1)OCO2)C1CC(=O)N(c2ccccc2)C1=O (stereo not given)	0	nt	i	2	-3	-4	-8	16
CCOC(=O)COc1cc(=O)n(CC)c2ccccc12	-18	-8	i	-1	-11	-1	4	-66
FC(F)(F)c1cccc(N2CCN(c3nnnn3-c3ccccc3)CC2)c1	4	-11	i	nt	-2	-8	3	nt
COc1ccc(OC)c(CNc2nc3ccccc3n2CCN2CCCCC2)c1	6	-22	i	1	-1	3	-1	4
COc1cccc(C(=O)NCCS(=O)(=O)NCC2CCCO2)c1 (stereo not given)	nt	-6	i	-4	-2	3	nt	-22
CC(C)CNC(=O)c1ccc(NC(=O)c2ccccc2[N+](=O)[O-])cc1	-3	-10	i	-9	-1	2	6	nt
CCOCCCNC(=O)C(c1ccc(OC)cc1)N(Cc1ccc2c(c1)OCO2)C(=O)c1ccccn1 (stereo not given)	-3	-2	i	-5	0	1	2	7
COc1ccccc1OCCCCCc1c(C)n[nH]c1C	-8	-17	i	-7	5	-12	-1	7
Cc1[nH]c2ccc(C(=O)NCCCN(C)C3CCCCC3)cc2c1C	3	-8	i	12	1	-7	-4	-6
Cc1ccc2c(c1)C(c1ccncc1)=NNC(c1ccc(F)cc1)=N2	-2	nt	i	2	1	3	-12	6
O=C(CNC1C(=O)Nc2ccccc21)Sc1ccccc1 (stereo not given)	-3	-10	i	10	3	3	20	1
COc1ccc(N2CCN(CC(O)COc3ccc([N+](=O)[O-])cc3)CC2)cc1 (stereo not given)	0	nt	nt	-2	1	5	-4	-4
O=C1CC(=O)Nc2cc(S(=O)(=O)N3CCOc4ccccc43)ccc2N1	-8	-11	i	nt	1	2	3	-1
Cc1cc(C(=O)OCC(=O)Nc2nc(-c3ccccc3)cs2)c(C)o1	2	-21	i	0	1	-2	2	nt
CCOc1cc(/C=N/Nc2nnc(C)n2N)ccc1O	0	-29	i	7	0	3	-5	-24
CN(C)C(CNC(=S)Nc1ccccc1Cl)c1cccnc1 (stereo not given)	-4	nt	i	-2	0	4	-14	-56
CCOC(=O)C1CCCC12Nc1cccc3cccc(c13)N2 (stereo not given)	nt	-5	nt	nt	3	5	nt	-6
CN1C(=O)C(O)(CC(=O)c2cccc(-n3cccc3)c2)c2ccccc21 (stereo not given)	12	-12	i	5	-3	0	17	20
CC1CN(C(=O)COC(=O)c2nn(-c3ccccc3)c(=O)c3ccccc23)CC(C)O1 (stereo not given)	-16	nt	i	-2	-2	3	-2	8
CCCC(=O)Nc1sc(C(=O)OC)c(C)c1C(N)=O	2	-8	i	3	-2	-3	2	nt
C(=C\c1ccccc1)/CSc1nnc(-c2cnccn2)n1Cc1ccco1	-2	-15	i	33	3	1	20	nt
Cn1c(SCC(=O)NCc2ccco2)nnc1C1CC1	nt	-11	nt	-14	3	0	nt	nt
CC1(C)CC2(C)OC(=N)C1(C#N)C2(C#N)C#N (stereo not given)	-3	nt	i	23	-1	2	2	22
Cc1nc(SCC(=O)NCc2ccco2)nc(C)c1C	-13	11	i	-12	-1	2	4	-3
COC(=O)c1ccc(CNC(=O)Cn2cc(C)c(=O)[nH]c2=O)cc1	nt	-8	nt	nt	4	7	nt	8
O=C(Nc1ccc(-c2ccccc2)cc1)c1ccc2c(c1)S(=O)(=O)c1ccccc1C2=O	nt	0	i	12	4	-7	nt	-33
Cc1cccc(N2C(S)=C(C#N)C(=O)NC2c2ccco2)c1 (stereo not given)	2	-21	i	1	-2	5	4	-12
COC(=O)[C@@]1(Cc2ccc(F)cc2)[C@H]2c3cc(C(=O)N4CCCC4)n(CCc4c[nH]c5ccc(OC)cc45)c3C[C@H]2CN1C(=O)c1ccccc1	50	nt	i	-5	nt	nt	-3	12
Fc1cccc(Cl)c1Cn1nnc2c(NCc3ccccn3)ncnc21	-6	-7	i	nt	6	4	40	12
COc1ccccc1NC(=O)c1ccc(NC(=O)C2CC2)cc1	nt	-12	nt	nt	3	4	nt	-13
COc1ccc(CN2CCN(CC3CC3)CC2CCO)cc1C (stereo not given)	4	-26	i	21	-2	1	1	-2
COCCCN1C(=O)C(CC(=O)NCc2cccc3ccccc23)CC(C(=O)N(C)C)=C1C (stereo not given)	nt	-11	nt	nt	1	2	nt	11
CC(C)c1nnc(N2C(=O)C(O)=C(C(=O)c3cccs3)C2c2ccccc2)s1 (stereo not given)	45	nt	i	nt	-113	4	-7	-16
CC1CCC(N(CCCN)Cc2ccco2)CC1C (stereo not given)	6	2	i	1	2	-2	8	23
COc1ccc(C(=O)CNC2=NCCC2)cc1	5	-71	i	-19	-4	1	-8	6
COc1cccc(C(=O)NCCNC(=O)c2ccc(C)nc2)c1	6	-7	i	-6	-2	0	5	-8
CCOC(=O)C1C(=O)C=C(N2CCOCC2)CC1c1cccc(OC)c1 (stereo not given)	2	-12	i	4	8	12	5	-47
CCc1nc2ccccc2c(C(=O)OCC(=O)NC2CC2)c1C	nt	-1	nt	-2	-3	0	nt	4

New compounds follow:
SMILES	eIF4H inh	UUG fidelity	Rce1 inhib	CSC inhib	MT1-MMP act inh	MT1-MMP act inh RFP	PABP FP inh	Env fusion inh	others
CC1CN(Cc2cn(C)nc2-c2ccc(Oc3ccccc3)cc2)CCN1C (stereo not given)	1	0	i	16	-4	-2	7	12
Cc1cccn2c(=O)c(C=O)c(N3CCCCCC3)nc12	0	-9	i	0	-6	-7	-6	nt
O=C(Nc1ccccc1)c1sccc1Oc1ccc([N+](=O)[O-])cc1F	4	nt	i	nt	-4	-3	9	2
Cn1c(N)cc(-c2ccc(F)cc2)c(C#N)c1=O	-11*	nt	i	-5	1	0	59*	0	eIF4H inh retest=108*;PABP FP inh retest=70*
CCOC(=O)c1sc2nc(C)nc(NCc3ccccc3)c2c1C	5	nt	i	1	4	-3	6	-14
CN(C)c1ccc(N=C/C=C2\N(C)c3ccccc3C2(C)C)cc1	-13	-33	i	-13	-2	22	-4	nt
